# Rango release inh: inhibitors of RanGTP-induced Rango-importin beta complex dissociation | O95149+P62826 | Biochemical FRET Rango-importin beta, RanGTP-induced dissociation | Potency, µM (doses to about 46.1 µM), inactives show at the top dose activity change, negative = inhibition | actives 0.071% (n = 340,000) | AID 540253; active means falling FRET ratio curve, often poorly fitted, with flat reads before Ran was added; inconclusive means other falling curves, or compound fluorescence or quenching; inactive means flat or rising ratio curve;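 note: potency is the fitted concentration of half-maximal effect; % of control where 0% means no effect; nearly all actives have a fitted effect of over 45% in size; -100% = wells without RanGTP and RCC1; the record marks most hits as doubtful in a second field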
#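 FRET read at 45 min, room temperature: inhibitors block the CFP/YFP signal rise when RanGTP (0.6 uM Ran, 2 mM GTP, 0.2 uM RCC1) frees Rango (0.1 uM) from importin beta (0.25 uM). Pre-read after 5 min compound exposure flags interference.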
# Rango complex inh: Rango-importin beta binding inhibition | AID 540263 | actives 0.031% (n = 340,000) | Rango CFP/YFP FRET sensor + importin beta, 45 min | Potency, µM (highest dose often 92.2 µM), inactives show at the top dose inhibition of complex formation | Q14974; active = rising FRET ratio curve, often small or poorly fitted; inconclusive = mostly compound fluorescence or quenching in the first reads; inactive = flat curves in all reads;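 note: potency is the fitted concentration of half-maximal effect; 0% = DMSO wells and 100% = buffer wells lacking importin beta; nearly all actives have a fitted effect of over 15% in size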
#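 FRET biosensor Rango (snurportin 1 IBB between N-terminal EYFP and C-terminal Cerulean), 50 nM in PBS/1 mM DTT/0.02% Tween-20/0.1% BSA, preincubated 5 min RT with compound; 0.125 microM importin beta added, 45 min RT, CFP/YFP FRET ratio read.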
# GLA inh pH 4.5: inhibitors of human alpha-galactosidase A at pH 4.5 | P06280 | purified enzyme, 4-MU-alpha-Gal fluorescence, pH 4.5 | activity change, negative = inhibition, % at 105 µM | 230,000 tested, under 10 active | AID 1467; inconclusive = small, poorly fitted or top-dose-only inhibition, or a rising curve; inactive = flat fitted curve, though single readings scatter; no compound was filed as active;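 note: 0% = full activity with enzyme and -100% = basal without enzyme; dose as in the result columns while the protocol names 77 µM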
# Target sequence (P06280 whole entry, looked up): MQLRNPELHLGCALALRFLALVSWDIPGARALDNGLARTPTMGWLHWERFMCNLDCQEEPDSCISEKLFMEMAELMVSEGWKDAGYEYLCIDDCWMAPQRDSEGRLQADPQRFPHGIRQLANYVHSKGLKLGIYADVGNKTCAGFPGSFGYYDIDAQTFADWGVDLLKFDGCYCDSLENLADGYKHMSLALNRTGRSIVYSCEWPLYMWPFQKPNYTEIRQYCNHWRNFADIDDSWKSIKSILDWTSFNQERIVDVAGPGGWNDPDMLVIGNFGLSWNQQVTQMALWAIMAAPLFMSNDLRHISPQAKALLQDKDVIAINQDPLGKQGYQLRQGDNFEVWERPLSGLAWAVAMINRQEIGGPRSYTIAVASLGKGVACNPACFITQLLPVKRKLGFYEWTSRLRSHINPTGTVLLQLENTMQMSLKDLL
# miR-21 reporter: miR-21 reporter, rising signal; HeLa miR-21 FLuc reporter, luciferase, 48 h; Potency, µM (highest dose often 38.3 µM), inactives show at the highest dose reporter change, positive = more light; 340,000 tested, under 10 active; active = well fitted rising curve with a large enough effect; inconclusive = small, poorly fitted or top-dose-only effect; inactive = no such curve, though single readings can be large or run the other way;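 note: % of control where 0% means no effect; miR-21 action dims this reporter so a rising signal means less miR-21 action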
#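 HeLa cells endogenously expressing miR-21, stably carrying CMV-driven firefly luciferase with a downstream miR-21 binding site, 2000 cells/well. Titrations up to approximately 40 uM, 48 hours; luciferase luminescence read.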
# * = called active by the depositor; u = inconclusive; x = not tested or not shown. Not all compounds are listed (hit frequency here may not be typical).
SMILES,Rango release inh,Rango complex inh,GLA inh pH 4.5,miR-21 reporter
Cc1ccc(NC(=O)C2C3C=CC4(O3)C2C(=O)N(CCN2CCOCC2)C4C(=O)NC2CCCCC2)cc1C (stereo unspecified),3%,1.7%,x,2%
COc1cccc(C2=NOC(C(=O)Nc3ccc4c(c3)OCO4)C2)c1OC (stereo unspecified),-6%,1.6%,x,-7%
C=CCSc1nc2ccccc2n1Cc1nnc(-c2cccs2)o1,u,-5.1%,4,-29%
Nc1c(Cl)ncnc1N/N=C/c1ccncc1,-10%,-3.7%,-3,6%
O=C(N1CCN(c2ccccn2)CC1)C(Cl)(Cl)Cl,-2%,-1.3%,1,-25%
Cc1ccccc1C(=O)NC(C(=O)Nc1nc2c(s1)CCCC2)C(C)C (stereo unspecified),0%,3.1%,-2,-15%
Cc1ccc(NS(=O)(=O)c2cccc(C(=O)N3CCCCCC3)c2)cc1,-14%,-1.1%,x,x
COC(=O)c1ccc(N2CCCCC2)c(N)c1,0%,-0.9%,6,-59%
CN1C(=O)c2ccccc2C(C(=O)NCc2ccco2)C1c1c[nH]c2ccccc12 (stereo unspecified),2%,-1.1%,-5,-9%
CCCC(=O)Nc1ccc(NC(=O)c2cccc(OC)c2)nc1,-1%,-2.0%,-9,-44%
Cc1ccc2oc(=O)c3cnn(CC(=O)N(CCCN4CCOCC4)Cc4ccco4)c3c2c1,-12%,0.0%,-9,3%
NS(=O)(=O)c1ccc(CCNC(=O)C2CCN(C(=O)Nc3ccccc3)CC2)cc1,4%,1.2%,x,x
COc1ccc(OC)c(NC(=O)CCNS(=O)(=O)c2cc(Br)cnc2N)c1,-5%,2.9%,x,-4%
CCC1CCCCN1S(=O)(=O)c1ccc(C(=O)N(CCCN(C)C)c2nc3cc4c(cc3s2)OCO4)cc1 (stereo unspecified),12%,u,x,-4%
CCOC(=O)C1CCN(c2cc3c(cc2NC(=O)c2ccccc2Br)n(C)c(=O)n3C)CC1,-17%,0.7%,x,-3%
Cc1cc(C(=O)OCC(=O)Nc2ccccc2Br)c(C)o1,7%,0.0%,x,x
COc1ccc(C)cc1NC(=O)C(=O)NNC(=O)c1ccco1,1%,0.2%,3,-10%
c1ccc(-c2cn(C[C@H]3CC[C@H](Cn4cc(-c5ccccn5)nn4)O3)nn2)nc1,13%,-0.3%,x,0%
COCCNC(=O)c1onc(CSc2ccncc2)c1C(=O)NCCOC,8%,-3.0%,2,-1%
Cc1ccc(OCCSc2nc(N)cc(N)n2)cc1,-12%,-1.2%,1,-77%
Cc1nn(C(C)C(=O)NCCCN2CCCCCC2)c(=O)c2c1sc1ccccc12 (stereo unspecified),1%,-0.5%,x,-6%
COc1ccc(NC(=O)CN2CCN(c3ccc(Cl)cc3)CC2)c(OC)c1,7%,4.1%,2,5%
CN(C)C(CNC(=O)c1cccc(S(=O)(=O)NCc2ccccc2)c1)c1ccco1 (stereo unspecified),-1%,2.8%,x,x
CCCn1nc(C(=O)NCCc2ccc(S(N)(=O)=O)cc2)c2ccccc2c1=O,7%,0.1%,6,-2%
N#CC1(NC(=O)CN2CCN(S(=O)(=O)c3ccccc3F)CC2)CCCC1,15%,5.5%,-2,-2%
SMILES,Rango release inh,Rango complex inh,GLA inh pH 4.5,miR-21 reporter
CCCSc1ncc(Cl)c(C(=O)Nc2ccc(S(=O)(=O)N3CC(C)OC(C)C3)cc2)n1 (stereo unspecified),17%,0.1%,3,18%
Cc1ccc(C2(C)NC(=O)N(CC(=O)c3ccc4c(c3)OCCO4)C2=O)cc1 (stereo unspecified),12%,-6.8%,x,x
CC1CCCCC1NC(=O)COC(=O)COc1ccccc1F (stereo unspecified),0%,-0.9%,x,x
CNC(=O)NC(=O)COc1c(F)c(F)cc(F)c1F,-15%,-0.5%,-15,2%
Cc1cccc(N2CCN(C(=O)CCS(=O)(=O)c3ccc(Br)cc3)CC2C)c1 (stereo unspecified),17%,-0.5%,-8,5%
CCn1c(SCC(=O)Nc2c(C#N)cnn2-c2ccccc2)nnc1-c1cccs1,-9%,0.1%,1,-2%
Cc1ccc(CNC(=O)C2(S(=O)(=O)c3ccccc3)CC=CC2)cc1,19%,-0.8%,x,-46%
Clc1cc2nc(-c3cccnc3Cl)[nH]c2cc1Cl,-13%,0.0%,x,-76%
O=C(CN1CCN(C(=O)C2CCCO2)CC1)Nc1ccc(Br)cc1 (stereo unspecified),1%,0.2%,x,-1%
O=c1c(-c2nn[nH]n2)coc2ccc(Cl)cc12,1%,0.4%,-13,-2%
O/C(=C\c1ccc2ccccc2n1)c1ccc(O)cc1O,u,u,-15,-5%
Cc1ccc(-c2cc(=O)[nH]c(NCc3ccccc3)n2)cc1,2%,-0.1%,x,x
Cc1ccc(C(=O)N2CCN(c3ccc(NC(=O)c4cccnc4Cl)cc3)CC2)cc1,18%,2.3%,x,-9%
CC(C)CCN1CCC(CN2CCNC(=O)C2=O)CC1,12%,-5.2%,x,x
CCOc1ccc2cc(C(=O)c3ccccc3)c(=O)oc2c1,-5%,-0.8%,7,-48%
COc1cc(C(=O)Nc2ccc(NC(=O)c3ccccc3Cl)nc2)cc(OC)c1OC,-12%,3.9%,x,12%
CN(C)S(=O)(=O)c1ccc(C(=O)/C=C/c2cccnc2)cc1,2%,2.8%,x,9%
COc1ccc(N2CCN(C(=O)CSc3nc4c(c(=O)n(C)c(=O)n4C)n3C(C)C)CC2)cc1,18%,-1.6%,11,-2%
COc1ccc2ccccc2c1/C=N/NC(=S)NCCN1CCOCC1,-1%,-3.9%,-7,1%
CC(C)c1ccc(NC(=O)CNCC(c2ccccc2)N(C)C)cc1 (stereo unspecified),28%,-0.2%,0,-3%
Cc1noc(/C=C/c2nn(C)cc2Cl)c1[N+](=O)[O-],1%,-2.9%,-3,21%
COc1cc(/C=C/c2ccc(/C=C/c3cc(OC)c(OC)c(OC)c3)cc2)cc(OC)c1OC,u,u,x,x
COc1ccccc1CC(=O)Nc1ccc2c(c1)OC1(CCCC1)O2,-3%,1.5%,x,x
Cc1nc(N2CCN(C(=O)c3ccco3)CC2)nc2c1C(=O)CCC2,-9%,2.4%,x,12%
O=C(O)CCC(=O)N1CCc2cc(S(=O)(=O)NC3CCCC3)ccc21,-2%,u,-2,4%
SMILES,Rango release inh,Rango complex inh,GLA inh pH 4.5,miR-21 reporter
CN(C)CCCN1C(=O)C(=O)/C(=C(/O)c2ccccc2)C1c1ccccn1 (stereo unspecified),x,x,0,-2%
O=S1(=O)N=C(Oc2cccc3ccccc23)c2ccccc21,1%,4.0%,-3,-9%
C#CCOCCOCCOCCNc1nc(N2CCOCC2)nc(N2CCN(C(=O)[C@H](CCCCN)n3cc(CCC(=O)O)nn3)CC2)n1,-19%,-1.1%,x,x
O=C(O)CN1C(=O)/C(=C\c2cc(Br)ccc2OCc2ccc(F)cc2)SC1=S,1%,0.1%,x,-7%
COc1ccc(Cc2c(C)nc(N)nc2Cl)cc1,7%,0.0%,6,-17%
CCN(CCCNC(=O)C1CCC(=O)N1C(C)C)c1cccc(C)c1 (stereo unspecified),2%,-2.4%,-4,-3%
Cc1ccc(-c2cc(-c3ccco3)c(C#N)c(=O)[nH]2)cc1,u,u,u,0%
N#Cc1ccc(-c2ccccc2)nc1Sc1ccc(F)cc1,1%,5.4%,1,-2%
CC(=O)N=c1scc(-c2ccccc2)n1-c1cccc(O)c1,6%,0.1%,x,u
CC(C)(C)N1CC(c2nc3ccccc3n2Cc2ccc(Cl)cc2)CC1=O (stereo unspecified),12%,0.4%,-5,8%
CCC(NS(=O)(=O)c1cnn(CC)c1)c1ccccc1 (stereo unspecified),26%,-1.5%,8,-3%
CSc1ncccc1C(=O)OCC(=O)N1CCCC1,7%,0.7%,x,x
CCC(=O)Nc1cccc(NC(=O)COc2ccc(OC)cc2)c1,-2%,-0.7%,-1,-9%
NC(=O)[C@@H]1CCCNc2c(I)cc([N+](=O)[O-])cc2C(=O)N[C@@H](CO)C(=O)N[C@@H](Cc2ccc(O)cc2)C(=O)N1,5%,-1.1%,4,-7%
Cc1cc(C(c2cc(C)c(N)c(C)c2)c2ccco2)cc(C)c1N,-3%,0.2%,x,x
CCOC(=O)c1c(NC(=O)CSc2ccccc2C(=O)O)sc(C)c1C,-28%,u,1,-23%
O=C1CC(C(=O)N(c2ccc(F)cc2)C(C(=O)NC2CCCC2)c2ccccn2)CS1 (stereo unspecified),-9%,0.0%,-3,-5%
O=C(N/N=C/c1ccc(O)cc1)NC12CC3CC(CC(C3)C1)C2,u,0.6%,x,-13%
Cc1cc(C)c2c(CC(=O)NN(C)C)coc2c1,-2%,1.1%,5,-5%
CC(NC(=O)COC(=O)CN1C(=O)c2ccccc2C1=O)c1ccccc1 (stereo unspecified),-7%,-1.9%,x,x
CCC(C(=O)N1CCc2ccccc2C1)n1nc(C)n2c(cc3occc32)c1=O (stereo unspecified),-13%,-2.8%,11,0%
Cc1c(Cl)cccc1NC(=O)N1CCCN(c2nc(-c3ccccc3)ns2)CC1,12%,1.7%,-3,19%
O=C1NC(=O)C2C3c4ccccc4C(c4ccccc43)C12 (stereo unspecified),-15%,3.1%,-3,0%
FC(F)(F)c1cccc(OCCN2CCN(Cc3ccccc3)CC2)c1,4%,-4.5%,-6,-1%
CCCCN(C(=O)c1cccc(N2C(=O)c3ccccc3C2=O)c1)c1c(N)n(CCCC)c(=O)[nH]c1=O,7%,-5.6%,x,x
SMILES,Rango release inh,Rango complex inh,GLA inh pH 4.5,miR-21 reporter
CCCCCC(C)NC(=O)c1ccoc1C (stereo unspecified),3%,-1.0%,0,-9%
O=C(Cn1cnc2c(nnn2-c2ccccc2)c1=O)N1CCC(Cc2ccccc2)CC1,3%,u,2,0%
COc1ccc(Cc2nc3ccc(C(=O)NCCn4cccn4)cc3o2)cc1,0%,0.4%,x,-17%
CCNC(=O)O/N=C1\CCCCC1c1ccc([N+](=O)[O-])cc1[N+](=O)[O-] (stereo unspecified),-10%,0.8%,x,-8%
CCC1=C(c2cc(OC)c(OC)c(OC)c2)C2(CCCC2)C(=O)O1,1%,4.5%,x,3%
CCCN(CCC)C(=O)Cn1c(=O)c2sccc2n2c(=S)sc(-c3ccccc3)c12,6%,0.3%,0,-2%
CC(=O)c1ccc(N2CCN(Cc3nc4ccccc4[nH]3)CC2)cc1,-2%,2.0%,x,-9%
COc1ccc(Cl)cc1NS(=O)(=O)c1c(C)[nH]c(C)c1C(=O)N1CCCCC1,16%,-0.1%,x,-1%
CCCN(CC1CC1)S(=O)(=O)c1ccc(S(N)(=O)=O)cc1,29%,4.2%,12,-6%
O=c1c2ccccc2nnn1CSc1ncnc2ccccc12,44%,u,11,1%
CCc1nn(C(C)C(=O)NCCc2ccccc2)c(=O)c2cc3occc3n12 (stereo unspecified),27%,-0.4%,x,-8%
COc1ccc(-c2nnc3n2CCCCC3)cc1,12%,-6.8%,x,0%
CCc1ccc(N2CC(C(=O)OCC(=O)Nc3cc(C)on3)CC2=O)cc1 (stereo unspecified),10%,-0.3%,-17,-4%
O=C(COC(=O)CCCSc1nc2ccccc2[nH]1)NC(=O)NC1CCCC1,-5%,-1.6%,-1,-4%
COc1ccc(CNC(=O)COC(=O)c2[nH]c(C)c(C(C)=O)c2C)cc1OC,24%,3.7%,x,x
CCCCn1c(O)c(N=NC(=O)c2ccncc2)c2cc(Br)ccc21,16%,-1.7%,1,7%
COc1ccc(NS(=O)(=O)c2cn(C)cn2)cc1Cl,-7%,-1.0%,x,-10%

# Arranged by the number under miR-21 reporter (smallest number first): five from the list above
SMILES,Rango release inh,Rango complex inh,GLA inh pH 4.5,miR-21 reporter
COc1ccc(NS(=O)(=O)c2cn(C)cn2)cc1Cl,-7%,-1.0%,x,-10%
CC(=O)c1ccc(N2CCN(Cc3nc4ccccc4[nH]3)CC2)cc1,-2%,2.0%,x,-9%
CCCN(CC1CC1)S(=O)(=O)c1ccc(S(N)(=O)=O)cc1,29%,4.2%,12,-6%
COc1ccc(Cl)cc1NS(=O)(=O)c1c(C)[nH]c(C)c1C(=O)N1CCCCC1,16%,-0.1%,x,-1%
CCC1=C(c2cc(OC)c(OC)c(OC)c2)C2(CCCC2)C(=O)O1,1%,4.5%,x,3%

# Assay outcomes deposited in PubChem BioAssay by National Center for Advancing Translational Sciences (NCATS).
